PABP polyA inh: PABP-poly(A) binding inhibition; actives 1% (n = 290,000); AID 2014; inhibition, % at 35 µM; PABP-poly(A) RNA binding, fluorescence polarization; P11940;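 active = 50% or more with normal probe brightness, or confirmed in later tests; inconclusive = above 50% with abnormal brightness, or retests that disagree; inactive = below 50% or failed in later tests; about a fifth of its hits are not listed in these tables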;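 also: calls also rest on retests at 20 µM and on dose response follow-up; controls were probe without protein and protein plus probe with vehicle; some compounds called inactive have numbers as strong as hits; many hits fall short of the cut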
Target sequence (P11940 whole entry, looked up): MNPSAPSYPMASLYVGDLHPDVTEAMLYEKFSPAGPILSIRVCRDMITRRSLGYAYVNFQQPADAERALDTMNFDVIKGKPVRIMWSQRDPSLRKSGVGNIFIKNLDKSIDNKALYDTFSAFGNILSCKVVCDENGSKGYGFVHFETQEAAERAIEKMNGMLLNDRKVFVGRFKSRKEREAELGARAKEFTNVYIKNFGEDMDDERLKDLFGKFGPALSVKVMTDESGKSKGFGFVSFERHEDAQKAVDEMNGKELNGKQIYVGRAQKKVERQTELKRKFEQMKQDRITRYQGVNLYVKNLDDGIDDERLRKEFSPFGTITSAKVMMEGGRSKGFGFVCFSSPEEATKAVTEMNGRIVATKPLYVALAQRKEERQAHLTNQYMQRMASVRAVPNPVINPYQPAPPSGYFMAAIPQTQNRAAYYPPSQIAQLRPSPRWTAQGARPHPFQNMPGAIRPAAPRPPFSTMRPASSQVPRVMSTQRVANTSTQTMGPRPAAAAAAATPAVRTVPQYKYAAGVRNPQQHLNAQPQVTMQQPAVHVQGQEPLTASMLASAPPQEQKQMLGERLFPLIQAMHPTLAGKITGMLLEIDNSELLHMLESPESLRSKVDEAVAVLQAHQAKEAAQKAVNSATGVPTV
UUG fidelity: modulators of start codon recognition fidelity in yeast; activity score, % at 18.7 µM; S. cerevisiae UUG-firefly luciferase reporter, luminescence/redox ratio; actives 0.13% (n = 350,000); AID 602363;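 active = replicate mean at a twofold rise or more, about +100% in these data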;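 also: firefly luciferase made from a UUG start codon reports start codon fidelity; reporter light over untreated wells divided by growth signal over untreated wells; some hits fall short of that in this replicate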
CSC inhib: cancer stem cell inhibition; AID 2717; cancer stem cell-like cells viability, luminescence; inhibition, % at 7.5 µM; actives 1.1% (n = 300,000);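 active = mean at 75% or more and at least half the replicates too; inconclusive = mean and replicates disagree; tested in HMLE shEcad cells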;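 also: 0% = median of negative and 100% = median of positive control wells; the first replicate is given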
Rce1 inhib: inhibitors of yeast Ras-converting enzyme; yeast membranes, quenched prenylated peptide cleavage fluorescence; actives 0.27% (n = 290,000); AID 2563; calls only;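 active = fall in fluorescence gain of 50% or more versus controls, with final raw signal at or below 3038400; inconclusive = same 50% fall but final raw signal above 3038400; inactive = fall in fluorescence gain under 50%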;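 also: plate controls were neutral control wells for no effect and wells lacking membranes for full effect; tested at 10 µM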
eIF4H FP inh: inhibitors of RNA binding by human eIF4H; eIF4H fluorescence polarization binding assay; inhibition, % at 35 µM; actives 0.94% (n = 290,000); AID 2012;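 active = 50% or more with normal probe brightness, or confirmed in later tests; inconclusive = above 50% with abnormal brightness, or retests that disagree; inactive = below 50% or failed in later tests; about a fifth of its hits are not listed in these tables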;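 also: calls also rest on retests at 20 µM and on dose response follow-up; 0% = protein and probe with vehicle and 100% = probe without protein; strong numbers were not always called active; many hits fall short of the cut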
MT1-MMP act inh: blocks activation of human MT1-MMP; P50281; actives 0.061% (n = 360,000); HT1080 RFP-PRO-GFP cells, GFP/RFP ratio fluorescence, overnight; percent of plate control window, DMSO zero; GFP/RFP ratio change, % at 20 µM;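 active = GFP/RFP ratio change of at least 30% with cell ATP level not reduced by more than half and red fluorescence within 50% of control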; also: strong numbers were not always called active
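Assay system: HT1080 RFP-PRO-GFP cells. Benchmarks: DMSO vehicle wells and RFP-L50D-GFP reporter cell wells. Times: overnight cell settling, then overnight compound exposure, 37 °C, 5% CO2. Compound: 20 µM single dose, 1% DMSO. Read-out basis: GFP/RFP fluorescence ratio.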
Env fusion inh: inhibitors of HIV Env-mediated cell fusion; actives 1.1% (n = 360,000); HeLa-JRFL Env/CEM21 cell fusion, luciferase; inhibition, % at 12.3 µM; AID 651610;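 active = mean replicate inhibition score of at least 50 and every replicate individually at or above 50; inconclusive = only one of the two criteria met; inactive = mean below 50 and not all replicates reaching 50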;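 also: 0% = plate neutral controls and 100% = maraviroc near 300 nM; one replicate is shown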
MT1-MMP act inh RFP: recorded beside MT1-MMP act inh, whose call it bears; RFP signal change, %; measured here: RFP expression control read;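 0 = vehicle wells; hits needed this value within 50% of zero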
* hit, by the source's call; i = inactive; ? = inconclusive; . = no result given; & = joins results of further samples.

1. Cc1cccc(N2CCN(CC(O)COc3ccccc3Cl)CC2)c1 (stereo not drawn)
2. O=S(=O)(c1ccc(S(=O)(=O)N2CCCC3(CCCCC3)C2)cc1)N1CCCCC1
3. O=[N+]([O-])c1cccc(S(=O)(=O)NCCOc2cccc3cccnc23)c1
4. C1=C(CCNC2=NCCCCC2)CCCC1
5. CCN(CC)C(=O)c1cn(C)c2ccc(S(=O)(=O)N(CC)CC)cc2c1=O
6. COc1ccc(CN2CCCC(C(=O)Nc3cccc(-n4cnnn4)c3)C2)c(C)c1C (stereo not drawn)
screen / no.	1	2	3	4	5	6
UUG fidelity	-3.0	.	-6.5	1.2	-9.9	7.9
CSC inhib	-7.4	-0.4	12.0	2.6	5.0	-13.1
PABP polyA inh	8.5	-11.6	-2.3	14.6	-2.2	12.3
MT1-MMP act inh RFP	0.2	1.1	0.6	-2.4	1.6	1.7
MT1-MMP act inh	-2.5	5.4	-2.3	4.2	2.5	2.9
Rce1 inhib	i	.	i	.	i	i
Env fusion inh	7.7	.	0.1	.	-51.2	17.2
eIF4H FP inh	1.5	5.6	-4.4	-0.7	-4.8	3.0

7. O=S(=O)(Nc1nc(-c2ccccc2)cs1)c1cc(Cl)ccc1Cl
8. Cc1c(NC(=O)c2ccccc2F)c(=O)n(-c2ccccc2)n1C
9. Cc1csc(NC(=O)CCSCCc2ccccn2)n1
10. COc1ccc(Cl)cc1NC(=O)C1(c2cccs2)CCOCC1
11. Cc1ccc(OCCC(=O)NNC(=O)c2ccncc2)cc1
12. Cc1cc(C)cc(-c2nnc(SCC(=O)c3ccc4c(c3)OCCO4)o2)c1
screen / no.	7	8	9	10	11	12
UUG fidelity	6.0	.	-15.5	.	-6.4	-19.2
CSC inhib	41.4	-4.2	-5.8	3.4	.	-3.9
PABP polyA inh	-2.9	-4.6	-1.1	21.5	.	-0.4
MT1-MMP act inh RFP	7.1	2.6	0.7	-1.5	-2.8	-1.1
MT1-MMP act inh	4.6	3.6	-4.1	-5.0	-9.8	0.9
Rce1 inhib	i	i	i	i	.	i
Env fusion inh	11.0	.	1.5	6.8	4.7	.
eIF4H FP inh	18.9	-8.1	-6.1	-9.0	.	-1.0

5 structures out of the list, sorted by molecular weight, falling:
6. COc1ccc(CN2CCCC(C(=O)Nc3cccc(-n4cnnn4)c3)C2)c(C)c1C (stereo not drawn)
5. CCN(CC)C(=O)c1cn(C)c2ccc(S(=O)(=O)N(CC)CC)cc2c1=O
12. Cc1cc(C)cc(-c2nnc(SCC(=O)c3ccc4c(c3)OCCO4)o2)c1
10. COc1ccc(Cl)cc1NC(=O)C1(c2cccs2)CCOCC1
11. Cc1ccc(OCCC(=O)NNC(=O)c2ccncc2)cc1
screen / no.	6	5	12	10	11
UUG fidelity	7.9	-9.9	-19.2	.	-6.4
CSC inhib	-13.1	5.0	-3.9	3.4	.
PABP polyA inh	12.3	-2.2	-0.4	21.5	.
MT1-MMP act inh RFP	1.7	1.6	-1.1	-1.5	-2.8
MT1-MMP act inh	2.9	2.5	0.9	-5.0	-9.8
Rce1 inhib	i	i	i	i	.
Env fusion inh	17.2	-51.2	.	6.8	4.7
eIF4H FP inh	3.0	-4.8	-1.0	-9.0	.

(further entries)
13. CCn1c(SCC(=O)N/N=C(\C)c2ccco2)nnc1-c1ccccc1
14. Cc1ccc(NC(=O)c2ccc(N/N=C/c3cccc(O)c3)c([N+](=O)[O-])c2)cc1
15. O=C(c1cc(COc2ccc(F)cc2Cl)on1)N1C[C@H]2CC[C@H]1C2
16. COc1ccc(NC(=O)C2CCC(C(C)(C)C)CC2)cc1S(=O)(=O)N1CCOCC1 (stereo not drawn)
17. O=C(CCS(=O)(=O)c1ccc(Br)cc1)N1CCN(c2ccc(F)cc2)CC1
18. CCOC(=O)N1CCN(C(=O)CN2C(=O)c3ccccc3S2(=O)=O)CC1
screen / no.	13	14	15	16	17	18
UUG fidelity	.	-16.4	3.7	9.7	2.0	-12.4
CSC inhib	-9.5	47.6	-1.6	-9.7	-4.4	-4.8
PABP polyA inh	-3.5	-5.9	-8.1	.	.	3.0
MT1-MMP act inh RFP	4.8	0.0	-0.3	-4.4	1.5	3.1
MT1-MMP act inh	-0.6	28.3	7.4	7.7	2.5	-0.1
Rce1 inhib	i	i	.	.	i	i
Env fusion inh	-17.2	.	?	21.5	-1.9	-4.0
eIF4H FP inh	0.6	-11.9	-6.4	.	.	2.3

19. CCOc1ccc(NC(=O)Nc2cc(C(=O)O)ccc2N2CC3CC(C2)c2cccc(=O)n2C3)cc1 (stereo not drawn)
20. COCCn1c(SCc2nc3ccccc3s2)nc2ccccc21
21. Cc1ccc(-n2c(=O)cc(N3CC(C)CC(C)C3)[nH]c2=O)cc1 (stereo not drawn)
22. CCO/C([O-])=N/c1c[n+](N2CCOCC2)no1
23. O=C(CCl)NNc1nc(-c2ccccc2)c2cc(Cl)ccc2n1
24. COc1ccc(Cc2nnc(SCC(=O)N3CCN(c4ccccc4)CC3)o2)cc1
screen / no.	19	20	21	22	23	24
UUG fidelity	8.5	-29.7	-11.5	-22.4&-17.8	-37.3	-7.3
CSC inhib	-2.9	-7.7	1.5	2.8&-16.6	1.0	7.1
PABP polyA inh	.	11.1	-4.9	1.5	-7.9	-3.7
MT1-MMP act inh RFP	6.3	-2.6	5.6	1.0&5.4	0.9	-7.7
MT1-MMP act inh	1.2	-3.6	5.4	1.4&0.2	3.3	-0.9
Rce1 inhib	i	i	i	i	i	i
Env fusion inh	-12.1	.	-29.2	.	-15.6	-73.6
eIF4H FP inh	.	0.1	-10.0	-8.2	5.5	-4.8

25. CC1(C)Cc2c(C#N)c(OCC(=O)c3ccc(Cl)cc3)nc(-c3ccoc3)c2CO1
26. Cc1ccc(C)c(NC2=NCC(=O)N2c2ccc3c(c2)OCCO3)c1
27. CCCn1c(N)c(C(=O)CSc2nnc3n2CCCCC3)c(=O)[nH]c1=O
28. CN(CCCN1CCOCC1)Cc1nc(-c2ccccc2)no1
29. CCOc1ccc(CCNC(=O)C2CC(C)=CCC2C(=O)O)cc1OCC (stereo not drawn)
30. CSC1=C(C#N)C(C)CC(=O)N1 (stereo not drawn)
31. O=C(NNC(=O)c1cccs1)c1cccc(F)c1
32. C/C(=N/NC(=O)c1ccc2c(c1)OCO2)c1ccc(NC(=O)c2ccc(F)cc2)cc1
33. CC(C)N=C1NN=C(c2ccc(F)cc2)CS1
screen / no.	25	26	27	28	29	30	31	32	33
UUG fidelity	0.0	21.7	4.5	.	-3.4	.	-4.4	-4.1	-45.5
CSC inhib	28.8	-14.3	-19.2	-13.0	6.9	-3.9	-15.3	-9.5	7.7
PABP polyA inh	1.4	7.8	.	-5.0	8.9	10.3	-8.6	-4.0	7.9
MT1-MMP act inh RFP	-2.4	-2.9	-1.1	2.2	4.7	3.0	-1.1	-0.5	-0.2
MT1-MMP act inh	-1.6	-3.1	-1.4	0.5	-0.2	0.1	1.5	-0.3	-2.4
Rce1 inhib	i	.	.	i	i	i	i	i	i
Env fusion inh	.	-75.8	.	19.6	0.9	.	-5.1	-293.9	-5.1
eIF4H FP inh	-2.1	2.6	.	1.8	22.9	1.5	-8.4	2.7	-2.3

Whole records, quoted from the list:
CN(CCCN1CCOCC1)Cc1nc(-c2ccccc2)no1 in the list: UUG fidelity = .; CSC inhib = -13.0; PABP polyA inh = -5.0; MT1-MMP act inh RFP = 2.2; MT1-MMP act inh = 0.5; Rce1 inhib = i; Env fusion inh = 19.6; eIF4H FP inh = 1.8
C/C(=N/NC(=O)c1ccc2c(c1)OCO2)c1ccc(NC(=O)c2ccc(F)cc2)cc1 in the list: UUG fidelity = -4.1; CSC inhib = -9.5; PABP polyA inh = -4.0; MT1-MMP act inh RFP = -0.5; MT1-MMP act inh = -0.3; Rce1 inhib = i; Env fusion inh = -293.9; eIF4H FP inh = 2.7
CC(C)N=C1NN=C(c2ccc(F)cc2)CS1 in the list: UUG fidelity = -45.5; CSC inhib = 7.7; PABP polyA inh = 7.9; MT1-MMP act inh RFP = -0.2; MT1-MMP act inh = -2.4; Rce1 inhib = i; Env fusion inh = -5.1; eIF4H FP inh = -2.3

An excerpt; the hit share may differ from the screen's.
